Assay outcomes from PubChem BioAssay.
MT1-MMP reporter – inhibitors of MT1-MMP promoter transcription, cell-based, luciferase reporter, luminescence (AID 618) | hit rate 0.62% among 87,000 | calls from a first round at 10 µM; hits with a dose series show EC50 in µM | MT1-MMP promoter luciferase reporter cells, luminescence;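 active = over half of the reporter light lost at 10 µM or EC50 under 50 µM; inactive = the rest and hits that failed the dose series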;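 also: actives suppress MT1-MMP promoter-driven transcription so potencies describe inhibitors; HT1080 fibrosarcoma cells; overnight exposure; toxic or luciferase-blocking compounds were not removed from the actives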
WNV protease inh – WNV NS2B-NS3 proteinase inhibition. P06935. WNV NS2B-NS3 protease, fluorogenic substrate Ex360/Em465; active compounds read low. z-score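 (tested at a level between 10 and 100 µM)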. hit rate 0.18% among 65,000. AID 577;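 active = z-score at -3 or under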;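 also: score is relative to mean and spread of the compound wells of a plate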
Target sequence (P06935 1371-1501 limits assumed): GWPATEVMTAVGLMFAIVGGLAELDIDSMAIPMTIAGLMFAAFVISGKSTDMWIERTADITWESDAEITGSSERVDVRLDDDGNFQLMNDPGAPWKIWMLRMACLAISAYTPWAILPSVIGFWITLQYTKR
Target sequence (P06935 1502-1679 limits assumed): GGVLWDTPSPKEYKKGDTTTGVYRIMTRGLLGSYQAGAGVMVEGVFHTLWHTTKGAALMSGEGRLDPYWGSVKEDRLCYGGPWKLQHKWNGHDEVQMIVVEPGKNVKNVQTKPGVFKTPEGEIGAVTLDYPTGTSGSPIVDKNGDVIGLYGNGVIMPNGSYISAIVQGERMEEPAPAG
Hsc70 – Hsc70 inhibitors, probe displacement, primary screen, biochemical, fluorescence polarization (AID 568) | Hsc70 fluorescence polarization, probe displacement; higher % means a stronger effect; strong numbers were not always called active | one-dose displacement, % at 20 µM; IC50 in µM for titrated hits | 83,000 tested, under 10 active;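 active = displacement above 50% without optical interference and an IC50 on retest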;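 also: ATPase domain with a fluorescein-tagged ATP probe; 0% = vehicle and 100% = excess ADP; read after one hour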
* marks the source's active call; other numbers are inactive results; i = inactive; x = no result given. This is a subset. The share of hits here may be higher or lower than overall.

compound	WNV protease inh	MT1-MMP reporter	Hsc70
O=C(CN1C(=O)C2CC=CCC2C1=O)Nc1nnc(SCc2ccc(Cl)cc2)s1 (stereo not given)	x	i	-1.5%
CC(C)(C)C1=Nn2c(nnc2-c2ccccc2F)SC1	2	i	-2.2%
Cc1csc(SCC(=O)Nc2ccc(S(=O)(=O)N3CCCC3)cc2)n1	-0.59	i	0.9%
COc1ccc2nc(N3CCCCC3)c(C#N)cc2c1	0.02	i	2.1%
CCOC(=O)c1ccc(Oc2nc(N(C)C)nc(N(C)C)n2)cc1	x	i	0.4%
Fc1ccccc1/C=N/n1cnnc1	0.91	i	-7.2%
Cc1c(/C(O)=C2\C(=O)C(=O)N(CCCN(C)C)C2c2ccncc2)cnn1-c1ccccc1 (stereo not given)	0.03	i	-2.7%
C/C=C(\C)CN1CCN(c2ccccc2)CC1	x	i	0.8%
CCc1c(C)nc2ncnn2c1NCCc1ccc(OC)c(OC)c1	-0.98	i	4.2%
CCOC(=O)N1CCC(NC(=O)C(NC(=O)C2CCC(C)CC2)C(C)CC)CC1 (stereo not given)	x	i	1.6%
O=C(COC(=O)CCC1CCCC1)Nc1ccc(Cl)cn1	1.3	i	-1.7%
CCN1CCCC1CNC(=O)COc1cc(=O)n(C)c2ccccc12 (stereo not given)	-0.76	i	4.0%
CCOC(=O)Cc1csc(NC(=O)c2ccc(NC(C)=O)cc2)n1	x	i	0.4%
COc1cc(C2N(c3ccc(F)cc3)C(=O)C3CCCN32)cc(OC)c1OC (stereo not given)	-2.2	i	0.4%
CC(C)CC(=O)Nc1sc2c(c1C#N)CC(C)(C)NC2(C)C	x	i	0.6%
O=C(Nc1nccs1)c1ccc(Br)c(S(=O)(=O)N2CCOCC2)c1	x	i	4.5%
CN=C(Nc1cc(C)nn1-c1ccccc1)c1ccc(F)cc1	1.5	i	1.7%
FC(F)(F)c1ccc(N2CCOCC2)c(NC2=NCCCCC2)c1	-0.46	i	-1.4%
O=C(Cn1cc2c(n1)CCCCC2)NC1CCCCCC1	1.7	i	-0.9%
CCCc1nnc(NC(=O)CCC(=O)N2CCCCCC2)s1	-0.49	i	-10%
CN(CCOC(=O)c1ccc2c(c1)OCCO2)C(C)(C)C	x	i	-1.2%
Cc1cccn2c(=O)c3cc(C(=O)NCC4CCCO4)n(C)c3nc12 (stereo not given)	-0.14	i	3.9%
COc1ccc(N2CCN(C(c3nnnn3CCc3ccccc3)C(C)C)CC2)cc1 (stereo not given)	0.28	i	0.5%
CC1(C)CC(=O)C(CCCN2C(=O)c3ccccc3C2=O)C(=O)C1	0.21	i	-2.6%
CN1CCN(C(=O)C(Cc2ccccc2)NS(=O)(=O)c2ccc3c(c2)CCC(=O)N3)CC1 (stereo not given)	0.51	i	8.9%
CC(=O)c1ccc(OC(C)C)c(CN2CCCCC2)c1	-1.3	i	-2.1%
CC(=O)Nc1cccc(NC(=O)c2c(-c3c(Cl)cccc3Cl)noc2C)c1	-0.79	i	-0.5%
COCC(=O)Nc1ccc(Br)cc1	x	i	-0.2%
COc1ccc(-c2cc(C(=O)N3CCN(C(c4ccccc4)c4ccccc4)CC3)no2)cc1OC	-0.3	i	-21%
COc1cc(C)nc(N2CCC(C(N)=O)CC2)n1	-1.1	i	3.8%
CCC(CC)C(=O)Nc1nnc(-c2cccs2)s1	-0.96	i	-0.7%
CN(C)c1ccc(C(=O)OCC(=O)Nc2ccc(S(N)(=O)=O)cc2)cc1	2	i	3.8%
Cc1ccc(CNC(=O)CSc2nnnn2C)cc1	x	i	0.7%
COc1ccc(OC)c(C(c2nnnn2CCC(C)C)N2CCN(C(=O)c3ccco3)CC2)c1 (stereo not given)	-1.3	i	-1.2%
O=C(CSc1nnc(C23CC4CC(CC(C4)C2)C3)o1)Nc1ccc(N2CCOCC2)c(Cl)c1	0.43	i	-6.4%
Cc1nonc1NC(=O)N1CCCC1	1.1	i	-8.4%
Cc1cccc(NC(=O)c2oc3ccc(S(=O)(=O)N4CCOCC4)cc3c2C)c1C	-0.13	i	-2.0%
Cc1ccccc1-n1cnc2cc(NCc3cccs3)ccc21	x	i	2.5%
COc1cccc(OC(=O)CSc2nnc(-c3ccccc3Br)o2)c1	-0.58	i	-4.2%
O=S(=O)(c1ccc(Cl)cc1)N1CCN(C2CCCCCC2)CC1	1.8	i	-2.7%
O=C(OC1CCOC1=O)c1ccc2ccccc2n1 (stereo not given)	-0.23	i	3.0%
CCS(=O)(=O)N1CCC(NC(C)=O)(c2ccccc2)CC1	0.53	i	-4.2%
N#Cc1nc(-c2ccco2)oc1N1CCOCC1	0.98	i	-1.2%
CCc1nnc(NC(=O)CSc2nnc(-c3ccncc3)n2C)s1	x	i	-3.0%
CCOC(=O)CC1=CC(=O)Nc2ccccc2N1	0.8	i	1.2%
CC(=O)c1ccc2c3c(ccc(O)c13)CC2	-0.79	i	0.2%
Cc1cc(N2C(=O)C3C4c5ccccc5C(c5ccccc54)C3C2=O)no1 (stereo not given)	3	i	-5.2%
O=C(O)COc1ccc2c(-c3ccccc3)cc(=O)oc2c1	-0.51	i	-0.1%
COc1ccc2oc(C(=O)C3CC3)c(N)c2c1	-0.32	i	-8.5%
CCN(CC)CCn1c(-c2ccccc2)nc(=S)c2c1CC(C)(C)OC2	x	i	7.3%
CC(=O)OC(C(=O)n1nc(C)cc1C)c1ccccc1 (stereo not given)	-0.73	i	2.9%
c1ccc(-c2cnnc(N3CCCCC3)n2)cc1	0.47	i	0.6%
O=C(NCC(=O)N(Cc1ccccc1)C(C(=O)NC1CCCC1)c1ccncc1)c1ccco1 (stereo not given)	x	i	-1.5%
CC(=O)CCc1ccc(OC(=O)c2cccnc2)cc1	x	i	0.4%
COc1ccc2c(c1)c1ncn(CCN3CCNCC3)c(=O)c1n2C	x	i	4.1%
Cc1c(C(=O)OC2CCCCC2)[nH]c2c1C(=O)CC(C)(C)C2	0.07	i	-2.6%
Cc1nc2ncnn2c(C)c1Cc1ccc(Cl)cc1	x	i	-4.2%
COc1ccc2c(c1)CC(C1(O)C(=O)Nc3ccccc31)C2=O (stereo not given)	0.71	i	-1.0%
Cc1cc(C(=O)N2CCN(C(=O)C3CCCO3)CC2)no1 (stereo not given)	-0.05	i	7.8%
CCC(=O)N1CCCn2c1nc1ccccc12	x	i	1.3%

Continued (3 carried over from the part before).
compound	WNV protease inh	MT1-MMP reporter	Hsc70
COc1ccc2c(c1)CC(C1(O)C(=O)Nc3ccccc31)C2=O (stereo not given)	0.71	i	-1.0%
Cc1cc(C(=O)N2CCN(C(=O)C3CCCO3)CC2)no1 (stereo not given)	-0.05	i	7.8%
CCC(=O)N1CCCn2c1nc1ccccc12	x	i	1.3%
CCOC(=O)c1cc2sc(C)cc2n1CC(=O)N1CCc2ccccc21	-0.36	i	1.1%
CCOC(=O)c1[nH]c(C)c(CN(CCc2ccccc2)S(C)(=O)=O)c1C	-0.65	i	5.1%
COc1ccc(-c2ncncc2-c2csc(C)n2)c(O)c1	0.1	i	2.3%
CC(CCc1ccccc1)NC(=O)c1nnc(Cc2ccc(F)cc2)o1 (stereo not given)	1.3	i	-2.7%
CCOC(=O)c1cnn(-c2ccc(C(F)(F)F)cn2)c1N	x	i	-1.2%
CC(C)COc1ccc(/C(O)=C2/C(=O)C(=O)N(CCN(C)C)C2c2ccncc2)cc1 (stereo not given)	-1.5	i	-6.9%
CC(C)(C)NC(=O)CSc1nsc(SCC(=O)NC(C)(C)C)c1C#N	-1.7	i	3.2%
C=CCSc1nsc(N)n1	-0.33	i	-1.6%
Cn1nnnc1SCc1nnc(-c2ccc(F)cc2)o1	x	i	3.7%
CC1(C)Cc2c(c(N3CCOCC3)nc3sc(C(=O)N4CCCCC4)c(N)c23)CO1	1.2	i	1.0%
CNc1nc(-c2ccc(Cl)cc2)cs1	-0.37	i	0.4%
Cc1ccc(C(=O)NCc2ccc3c(c2)OCO3)cc1S(=O)(=O)N1CCOCC1	-0.55	i	-0.3%
COc1ccc(-c2cc(C(F)(F)F)nc(SCC(=O)NCc3ccco3)n2)cc1OC	-0.7	i	2.5%
COC(=O)c1[nH]c2c(c1C)C(=O)CC(c1cc(OC)ccc1OC)C2 (stereo not given)	0.55	i	1.2%
Cc1ccccc1CS(=O)(=O)Cc1ccc(C(=O)NCc2cccnc2)o1	1.9	i	0.3%
Clc1ccc(OCCCc2nc(-c3cccnc3)no2)c(Cl)c1	-0.76	i	-0.6%
CCOC(=O)C1=C(O)C(Nc2nc3ccccc3s2)(C(F)(F)F)N=C1C (stereo not given)	x	i	-0.5%
COc1ccc(-n2c(C)nc3cc(C(=O)NCCN4CCOCC4)ccc32)cc1	x	i	-1.8%
O=C(c1ccc(S(=O)(=O)N2CCOCC2)cc1)N1CCc2ccccc2C1	0.26	i	-8.2%
O=C(O)CCCC(=O)NCc1ccccn1	-0.37	i	-1.5%
[O-]/C(=C(\C(=S)Nc1cccc2ccccc12)[n+]1ccccc1)c1ccc2c(c1)OCCO2	x	i	-3.2%
Cc1ccccc1OCC(=O)OC(C)CN1CCN(C)CC1 (stereo not given)	0.15	i	5.7%
c1ccc(Cn2nnnc2C(c2cccs2)N2CCc3ccccc3C2)cc1 (stereo not given)	0.62	i	-0.1%
COC(=O)c1ccc(S(=O)(=O)N2C3CCC2CC(NC(=O)NC2CCCCC2)C3)cc1 (stereo not given)	0.56	i	-2.3%
Clc1ccc2nc(N3CCCCC3)sc2c1	1.9	i	0.2%
N#Cc1ccccc1NC(=O)CSc1nnc(-c2ccccc2)n1-c1ccccc1	0.9	i	-6.8%
O=C(Nc1ccc(N2CCOCC2)cc1)c1cccc(S(=O)(=O)N2CCC(Cc3ccccc3)CC2)c1	x	i	-1.4%
CCCCCOC(=O)CSc1n[nH]c(=O)[nH]c1=O	x	i	0.5%
CCOC(=O)C1CCN(C(=O)c2sc3nc(C)nc(N4CCC(C)CC4)c3c2C)CC1	x	i	-2.6%
Cc1ccccc1NC(=O)c1ccc2c(c1)C(=O)N(CCC(C)C)C2=O	x	i	-2.8%
CCOC(=O)C1CCN(S(=O)(=O)Cc2ccccc2)CC1	-0.16	i	3.2%
Cn1c(SCC(=O)NCc2ccc3c(c2)OCO3)nc2scc(-c3cccs3)c2c1=O	0.18	i	-3.1%
CCOC(=O)C(CCCOc1cccc(OC)c1)C(=O)OCC	0.15	i	7.0%
CC1(C)CC(=O)C(C=NCc2cccnc2)=C(O)C1	-0.9	i	0.1%
Cc1ccc2nc(N3CCN(S(=O)(=O)c4ccc5c(c4)OCCO5)CC3)c(C#N)cc2c1	x	i	0.4%
O=C(CSCc1c(Cl)cccc1Cl)NCc1ccco1	x	i	-4.5%
Cc1ccc(NC(=O)COc2ccccc2CNC(C)(C)CC(C)(C)C)cc1	x	i	1.3%
COc1cc(OC)cc(-c2ncc3ccccn23)c1	x	i	3.4%
Cn1c(SCC(=O)NCC2CCCO2)nnc1-c1ccc(S(=O)(=O)N2CCCC2)cc1 (stereo not given)	-1	i	1.7%
COC(=O)c1cccc(S(=O)(=O)N2CCC(C)CC2)c1	0.45	i	6.1%
CCn1c(=O)cc(SCC(=O)NCc2ccc(C)cc2)c2ccccc21	x	i	-0.3%
Oc1c(C(c2ccco2)N2CCC3(CC2)OCCO3)sc2ncnn12 (stereo not given)	-1.2	i	4.1%
CC(C)(C)NC(=O)COC(=O)c1ccc(O)cc1	-0.23	i	0.2%
CC1CN(C(=O)CN2C(=O)NC(C)(c3ccccc3)C2=O)CC(C)O1 (stereo not given)	-1.4	i	0.5%
CCC(=O)N1CCN(c2ccccc2NC(=O)COc2cccc(C)c2)CC1	-0.98	i	-2.8%
CCc1ccc(CNn2cnnc2SCC(=O)NC(C)(C)C)cc1	x	i	2.3%
CCOCc1nnc(NC(=O)CCc2ccccc2)s1	0.95	i	7.3%
CCOc1ccccc1Nc1nnc(SCC(=O)N2CCCC2)s1	-1.2	i	-3.3%
CCCc1cc(=O)[nH]c(SCC(=O)N(CC)Cc2ccccc2)n1	-0.6	i	0.9%
Cc1nc(C)c(C(=O)C2=C(O)C(=O)N(CCCn3ccnc3)C2c2ccc(Cl)cc2)s1 (stereo not given)	-0.44	i	-6.3%
CN(C)C1NC(=O)c2cc(-c3ccccc3)sc2N1 (stereo not given)	x	i	2.2%
COc1ccc(O)c(C(=O)CC(=O)c2ccc(F)cc2)c1	-0.1	0.57µM*	6.0%
COc1ccccc1CNn1c(-c2cccc(C)c2)nc2ccccc2c1=O	x	i	3.7%
CCOC(=O)c1sc2nc(-c3ccco3)c3c(c2c1N)CC(C)(C)OC3	0.3	i	-2.1%
CCOc1cc(C(=O)NCCOC)cc(OCC)c1OCC	-1.3	i	5.9%
COC(=O)c1cn(C(=O)c2ccc(Br)o2)c2ccccc12	-0.58	i	-2.9%
